Compound activity: PubChem BioAssay, several laboratories
BJeLR viability – BJeLR cell viability loss | BJeLR (HRASV12) viability, CellTiter-Glo ATP luminescence, 48 h; reference of the scale not given here | inhibition, % (test concentration not listed) | 0.17% of 300,000 active | AID 1554;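 active means replicate mean above 50%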;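 further: 50 nL library stock added to about 25 µL; numbers are from one replicate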
Sa ugtP lethal – compounds lethal to S. aureus RN4220 ugtP deletion mutant | 0.54% of 330,000 active | growth inhibition, % (no concentration beside the values) | OD600 growth, 16 h; some inactives read as strong as hits;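 active means z-score under -3 and OD600 up to 0.15 on both plates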;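 further: plate controls were untreated wells for no effect and antibiotic for full effect; wells of about 80 µL received 100 nL stock; the first replicate is given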
Mtb hypoxia inh – Mtb hypoxia fluorescent reporter inhibition; M. tuberculosis hypoxia-regulated fluorescent reporter, fluorescence; fluorescence inhibition, % (test concentration not listed); 0.1% of 300,000 active; AID 1159583;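 active means 35 to 45% if threefold the growth effect, above 45% if 1.5-fold the growth effect; inactive means the rest, general growth blockers included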;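 further: wells of about 50 µL received 100 nL stock; 0% = vehicle wells and 100% = reference inhibitor wells; whole bacteria with a GFP reporter of the hypoxia response; strong numbers were not always called active; many hits fall short of the cut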
Bead autofluor – compound fluorescence in toxin protease inhibitor counterscreen; compound autofluorescence counterscreen, microsphere flow cytometry; active compounds read high; fluorescence intensity (no concentration beside the values); 3.1% of 360,000 active;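 active means at least 3 SD above the mean of all compounds, about 16000 in these data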;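 further: 100 nL of 1 mM stock went into each well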
RN4220 kill – kills Staphylococcus aureus RN4220 | 0.33% of 330,000 active | inhibition, % (no concentration beside the values) | S. aureus RN4220 growth, OD600, 16 h;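 active means z-score of -3 or lower and OD600 up to 0.18 on both plates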;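 further: plate controls were untreated cells for no effect and reference antibiotic for full effect; stock transfer was 100 nL into about 80 µL; one replicate is shown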
PrP 5UTR inh – suppresses PrP 5' UTR mRNA reporter expression; cell-based PrP 5' UTR mRNA reporter, plate reader; inhibition, % (test concentration not listed); 0.35% of 340,000 active; AID 488862;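 active means every replicate at 50% or more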;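 further: 0 = median of the neutral control wells; tested in H4 reporter cells; numbers are from one replicate; inactives centre near -14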
Mtb hypoxia inh growth – further read-out of Mtb hypoxia inh, marked with its call; growth inhibition, %; measured here: M. tuberculosis growth (absorbance);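 0% = vehicle and 100% = reference antibiotic; read after six days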
* hit, by the source's call; · = no result given; & = joins results of further samples.

entry	Molecule	BJeLR viability	Sa ugtP lethal	Mtb hypoxia inh	Mtb hypoxia inh growth	Bead autofluor	RN4220 kill	PrP 5UTR inh
1	N#Cc1c(NC2CCCCC2)nc(-c2ccco2)c2c1CCCC2	5.4	57.1	·	·	3201	28.5	-22.1
2	COc1ccc(C2CC(c3ccc(C(F)(F)F)cc3)=NN2c2ccc(S(N)(=O)=O)cc2)cc1 (configuration not stated)	·	-25.9	2.3	7.5	3637	-18.4	-14.4
3	COc1cc(C(=O)N2CCN(S(=O)(=O)c3ccc(C)cc3)CC2)ccc1OCc1c(C)noc1C	-0.2	-3.3	8.2	13.4	4045	-2.6	-19.2
4	Cc1[nH]nc2c1/C(=N\O)CCC2	2.9	·	·	·	2197	·	-7.0
5	CN1C(=O)C(C)(C)c2cc(S(=O)(=O)NCC(=O)NCc3ccccc3)ccc21	2.7	-3.2	-0.1	4.0	5993	2.3	-5.0
6	N=c1oc2ccc(Cl)cc2cc1C(=O)Nc1ccc(F)cc1	-7.2	12.6	9.0	14.7	3630	5.8	·
7	C[C@H](NC(=O)c1ccc(C(C)(C)C)cc1)C(=O)N1CCC2(CC1)NCCc1[nH]cnc12	-4.1	13.7	4.4	12.2	4423	4.7	-15.8
8	O=C(Nc1nc2ccc(Oc3ccccc3)cc2s1)c1cc([N+](=O)[O-])ccc1N1CCOCC1	-2.7	2.5	-9.3	-6.3	2572	1.3	-23.0

Compound profiles (already shown). Values in the order: BJeLR viability	Sa ugtP lethal	Mtb hypoxia inh	Mtb hypoxia inh growth	Bead autofluor	RN4220 kill	PrP 5UTR inh
`C[C@H](NC(=O)c1ccc(C(C)(C)C)cc1)C(=O)N1CCC2(CC1)NCCc1[nH]cnc12` is listed with -4.1	13.7	4.4	12.2	4423	4.7	-15.8
`N#Cc1c(NC2CCCCC2)nc(-c2ccco2)c2c1CCCC2` is listed with 5.4	57.1	·	·	3201	28.5	-22.1

Other records.
entry	Molecule	BJeLR viability	Sa ugtP lethal	Mtb hypoxia inh	Mtb hypoxia inh growth	Bead autofluor	RN4220 kill	PrP 5UTR inh
9	CC(=O)Oc1ccc(-c2ccc(C(=O)NCCc3ccc(S(N)(=O)=O)cc3)cc2)cc1	-8.3	0.8	1.0	0.6	3786	3.5	-5.9
10	COc1ccc(C(=O)N2CCCc3ccccc32)cc1Br	7.8	6.1	17.9	10.4	4003	5.7	-22.7
11	Cc1ccc(NC(=O)CSc2nc3c(c(=O)[nH]2)CCCC3)cc1C	-4.9	-6.5	14.2	2.9	6586	5.2	-28.6
12	COc1cccc2c1OC[C@@H](CO)[C@H]2N(C)C(=O)Nc1ccc(Cl)cc1Cl	0.4	-5.7	-2.8	5.3	17819*	-1.3	-24.7
13	COc1ccccc1N(CC(=O)NCc1ccccc1)S(C)(=O)=O	-1.8	16.4	5.8	3.8	2534	19.9	-15.8
14	Cn1nccc1NC(=O)Nc1cccc(Cl)c1Cl	-3.4	-10.1	-1.1	0.5	5073	-3.2	-4.2
15	CC(C)CC(NC(=O)c1ccccc1)C(=O)NN=Cc1ccco1 (configuration not stated)	·	-3.5	4.7	2.3	·	1.6	·
16	COCCn1c(SCC(=O)N2CC(=O)Nc3ccccc32)nc2ccccc2c1=O	-1.3	0.3	11.4	12.9	4856	3.4	-14.8
17	CCOC(=O)CN1NC2(CCCCC2)NC1=S	2.2	1.1	·	·	4140	1.8	-3.2
18	O=C(O)c1cccc(NN=Cc2sc(N3CCOCC3)nc2-c2ccccc2)c1	·	2.4	18.1	7.9	·	5.7	·
19	Cc1ccccc1-[n+]1c(-c2ccccc2)cc(-c2ccccc2)cc1-c1ccccc1	25.1	100.5*	·	·	4151	99.8*	-14.6
20	O=C1NN=C(CSc2n[nH]c(=S)s2)CS1	-8.1	11.1	0.5	-1.0	4168	8.4	-12.2
21	COc1ccc(/C=N/OCc2ccc(Br)cc2)c(OC)c1	0.6	·	·	·	3316	·	-1.1
22	CCOC(=O)C1=C(C)NC(SCC(N)=O)=C(C#N)C1c1ccncc1 (configuration not stated)	2.1	-2.2	·	·	3539&4375	1.4	-36.2&-7.0
23	Cn1c2c(c(=O)n(C)c1=O)C(c1ccc(O)cc1)Nc1ccccc1O2 (configuration not stated)	3.0	0.9	-6.3	6.6	2454	3.5	-7.7
24	CC(C)NC(=O)c1onc(CSc2ccc(Cl)cc2)c1C(=O)NC(C)C	11.0	17.3	8.9	6.8	3579	5.7	-4.8

A different layout for part of the listing above:
[22] CCOC(=O)C1=C(C)NC(SCC(N)=O)=C(C#N)C1c1ccncc1 (configuration not stated)
  BJeLR viability: 2.1
  Sa ugtP lethal: -2.2
  Mtb hypoxia inh: ·
  Mtb hypoxia inh growth: ·
  Bead autofluor: 3539&4375
  RN4220 kill: 1.4
  PrP 5UTR inh: -36.2&-7.0
[23] Cn1c2c(c(=O)n(C)c1=O)C(c1ccc(O)cc1)Nc1ccccc1O2 (configuration not stated)
  BJeLR viability: 3.0
  Sa ugtP lethal: 0.9
  Mtb hypoxia inh: -6.3
  Mtb hypoxia inh growth: 6.6
  Bead autofluor: 2454
  RN4220 kill: 3.5
  PrP 5UTR inh: -7.7

Next structures.
entry	Molecule	BJeLR viability	Sa ugtP lethal	Mtb hypoxia inh	Mtb hypoxia inh growth	Bead autofluor	RN4220 kill	PrP 5UTR inh
25	N=C1CCCN1CC(=O)c1ccc(Cl)cc1	-5.0	10.3	9.2	5.6	2479	7.2	-8.2
26	COc1cc(C)c(C)cc1S(=O)(=O)N1CCN(Cc2ccccc2)CC1	-6.1	3.4	11.9	4.2	7449	-1.9	-11.4
27	Cc1ccccc1-n1c(SCC(=O)N/N=C/c2c(C)nn(-c3ccccc3)c2C)nc2ccccc2c1=O	-9.6	·	·	·	2490	·	6.1
28	CCCc1noc2c1C(=NO)CC(c1ccccc1)C2 (configuration not stated)	·	1.0	7.0	12.2	·	-10.4	·
29	Cc1ccc(-n2c(Cn3cnc4ccccc43)nnc2SCC(=O)O)cc1	-2.7	-1.7	15.9	13.9	4286	4.1	-10.8
30	COc1ccc(CCN(C)C(=S)NC(=O)c2ccc(F)cc2Cl)cc1OC	2.2	3.9	12.1	10.3	4121	2.3	-3.6
31	Cc1cccc(NC(=O)CSc2nc(=O)n(CCCN3CCOCC3)c3c2CCCC3)c1	11.2	8.4	2.8	-3.0	·	6.1	-23.0
32	O=C(CSc1nc2ccccc2[nH]1)NC(=O)NCc1ccco1	-1.3	8.0	·	·	3477	-2.4	-4.7
33	Cn1c(CSc2ncccn2)nnc1SCC(=O)N1CCCC1	4.0	4.8	4.3	7.2	3371	8.1	-16.5
34	CCOc1nc(C)cc(C)c1S(=O)(=O)c1cccc(C)c1	-4.9	-4.4	10.0	7.3	·	18.8	·
35	O=c1cc(-c2cccc([N+](=O)[O-])c2)[nH][nH]1	-6.3	13.7	12.0	0.9	2076	6.7	-17.5
36	O=C(NN=Cc1ccc(OC(F)F)cc1)c1cc[n+]([O-])cc1	·	1.3	9.3	-6.3	·	2.6	·
37	O=NN(CCCl)C(=O)NCCCl	·	-0.3	1.7	-2.9	4345	4.9	-11.2
38	CCc1ccc(C(=O)Nc2ccc3nc(C)ccc3c2)cc1	-3.6	10.0	-1.5	10.4	3759	11.3	-38.6
39	CCc1ccc(C(=O)Nc2ccc(C)c(NS(C)(=O)=O)c2)cc1	-1.1	-2.1	0.2	0.2	5976	2.7	-38.3
40	CCOC(=O)N1CCN(C(=O)COC(=O)c2oc3ccc(OC)cc3c2C)CC1	-8.6	4.3	5.3	3.4	5777	1.4	-10.1
41	CN(Cc1cnccn1)Cc1ccccc1OCC(O)CN1CCc2ccccc2C1 (configuration not stated)	-2.0	4.2	7.2	2.5	4184	-0.8	-0.8
42	CCOCCn1c(COc2ccccc2)nc2ccccc21	7.6	-2.3	18.5	3.3	3265	-11.0	-20.1
43	Cc1ccc(NC(=S)NC(=O)CC2CC(C)(C)OC2=O)cc1 (configuration not stated)	1.5	10.2	16.2	-7.0	2454	3.1	-16.4
44	CCCOc1ccc(N2C(=O)CC(N3CCOCC3)C2=O)cc1 (configuration not stated)	-3.8	-5.5	5.0	-10.8	9084	1.8	-1.2
45	S=c1[nH]nc(-c2cccs2)n1N=Cc1c(Cl)cccc1Cl	·	3.3	7.1	5.9	·	18.6	·
46	O=C(NNc1ccc([N+](=O)[O-])cc1[N+](=O)[O-])c1ccco1	6.2	12.5	20.7	0.5	6838	12.9	-8.1
47	NNc1nc2c(Cl)c(Cl)ccc2s1	-10.9	-0.3	9.0	3.3	10097	5.8	-21.8
48	Cc1cc(O)c(Sc2ccc(Cl)cc2)c(=O)[nH]1	13.9	11.3	9.0	6.4	5314	4.6	-8.8
49	Fc1c(F)c(F)c(N2CCNCC2)c(F)c1F	3.0	-2.7	7.0	6.6	5976	-1.1	1.7
50	Cc1ccc(C)n1NC(=O)c1cccs1	-1.3	17.1	-4.2	-2.3	2159	18.4	24.9
51	COc1cc(CNn2nnnc2N)ccc1OCc1c(Cl)cccc1Cl	-0.8	-12.5	5.0	12.3	5655	11.5	-20.4
52	Cc1noc(C)c1C(=O)Nc1cccc(S(=O)(=O)N2CCOCC2)c1	·	-0.9	17.6	9.4	3814	-1.3	-18.1
53	COc1cccc(/C=N/Nc2nnc3c(n2)[nH]c2ccccc23)c1OC	-3.1	·	·	·	6327	·	-19.2
54	CCCCCc1ccc(CC(=O)O)cc1	1.5	7.1	-1.2	-1.0	25330*	7.6	-4.0
55	CCOC(=O)N(C)S(=O)(=O)c1ccccc1[N+](=O)[O-]	0.4	14.4	5.1	11.6	4037	5.6	-15.6
56	CC(C)C(C(=O)NCc1ccco1)N(C(=O)CNS(=O)(=O)c1ccccc1)C1CCCC1 (configuration not stated)	6.1	-0.4	·	·	4529	1.8	7.1
57	Cc1cc2nc(C(C)(C)C)cc(N)n2n1	-6.6	·	·	·	4495	·	-2.0
58	O=S(=O)(NCCc1ccccc1)c1ccc(Br)cc1	-1.5	-0.2	10.8	11.4	3572	0.2	-7.2
59	Clc1ccc(-c2nnc(CNC3CC3)o2)cc1	0.0	·	·	·	2470	·	-9.1
60	CN(C)CCCNc1oc(-c2ccccc2Cl)nc1S(=O)(=O)c1ccc(F)cc1	-2.5	9.0	0.2	12.8	6312	-0.1	-30.2
61	CC(=O)Nc1ccc2c(c1)CN(c1cc(C)ccc1C)CO2	10.4	5.1	2.8	0.9	2078	3.8	-2.1
62	Nn1c(Cc2cccc3ccccc23)nnc1SCc1c(F)cccc1Cl	0.2	9.9	10.9	6.1	2017	1.0	-20.5
63	CCOC(=O)CNC(=O)C(Cc1ccccc1)NS(=O)(=O)c1ccc2c(c1)CCC(=O)N2 (configuration not stated)	-4.2	3.7	5.1	10.8	9999	2.6	-11.7
64	Cc1c(CCC(=O)O)c(=O)oc2cc3occ(-c4ccc(Cl)cc4)c3cc12	3.8	30.1	14.5	5.6	5065	29.0	-22.9
65	CC(Oc1ccccc1F)c1nnc(SCC(=O)Nc2ccc(N3CCOCC3)cc2)o1 (configuration not stated)	·	-0.7	-5.8	-0.7	3659	2.4	-38.9
66	CCOC(=O)c1nc(C)nc(Sc2n[nH]c(-c3ccccc3)n2)c1C	-6.7	-0.9	5.6	9.7	6143	3.7	-19.2
67	COC(=O)C1=C(c2cccc(OCc3ccccc3)c2)CC2CCC1N2C(=O)NCc1ccc(F)cc1 (configuration not stated)	·	-0.2	6.3	5.4	·	-8.1	·
68	CC(C)=CCc1c(O)ccc(C2COc3c(CC=C(C)C)c(O)cc(O)c3C2=O)c1O (configuration not stated)	-2.0	17.4	·	·	5415	3.8	-31.1
69	Cc1cccc(NC(=O)CSc2nc(NS(=O)(=O)c3ccccc3)cc(=O)[nH]2)c1	3.2	-2.2	5.7	6.3	4343	2.2	10.7
70	O=C(O)c1cccc(NC(=O)c2cccc(NC(=O)C3CCCO3)c2)c1 (configuration not stated)	-1.4	8.2	8.4	4.3	4462	3.8	11.9
71	Cc1ccc2c(=O)cc(C(=O)Nc3ccc(S(=O)(=O)Nc4onc(C)c4C)cc3)oc2c1	-3.6	3.9	·	·	5394	2.5	6.0

Molecules from the list above that have a tert-butyl group, in the order listed:
entry	Molecule	BJeLR viability	Sa ugtP lethal	Mtb hypoxia inh	Mtb hypoxia inh growth	Bead autofluor	RN4220 kill	PrP 5UTR inh
7	C[C@H](NC(=O)c1ccc(C(C)(C)C)cc1)C(=O)N1CCC2(CC1)NCCc1[nH]cnc12	-4.1	13.7	4.4	12.2	4423	4.7	-15.8
57	Cc1cc2nc(C(C)(C)C)cc(N)n2n1	-6.6	·	·	·	4495	·	-2.0
